# Assay outcomes as filed in PubChem BioAssay.
# LASV entry inh = blocks Lassa virus binding to or entry into cells; Lassa virus pseudotype entry inhibition, cell reporter; control for the full effect not named in the record; Potency, µM (series often up to 37.9 µM), for inactives: top-dose activity change, negative = inhibition, actives largely listed as inhibitors; 1.2% of 300,000 active; AID 540256; active means well fitted inhibition curve with a large enough effect; inconclusive means small, poorly fitted or top-dose-only effect, or effect the other way; inactive means flat fitted curve, though single readings scatter; tested in HEK293 cells; further: on the % scale 0 is the no-effect control and ±100 the full control effect; nearly all actives have a fitted effect of over 50% in size; luciferase read-out
# MARV entry inh = blocks Marburg virus binding to or entry into cells; Potency, µM (highest dose often 37.8 µM), inactives show at the highest dose activity change, negative = inhibition, actives largely listed as inhibitors; 1.8% of 300,000 active; AID 540276; Marburg virus pseudotyped entry inhibition, cell reporter; control for the full effect not named in the record; about a third of the inactives were read at about 46 µM; active = well fitted inhibition curve with a large enough effect; inconclusive = small, poorly fitted or top-dose-only effect, or effect the other way; inactive = flat fitted curve, though single readings scatter; tested in HEK293 cells; about a fifth of its hits are not listed in these tables; further: on the % scale 0 is the no-effect control and ±100 the full control effect; luciferase read-out
# StopGo reporter = FMDV 2A StopGo reporter, luciferase signal; human cells with a luciferase reporter of 2A StopGo recoding; control for the full effect not named in the record; Potency, µM (series often up to 57.9 µM), inactives show at the highest dose signal change, negative = less light; 1.2% of 410,000 active; AID 1159524; active = well fitted falling curve with a large enough effect; inconclusive = small, poorly fitted or top-dose-only effect; inactive = no such curve, though single readings can be large or run the other way; tested in HEK293T cells; further: on the % scale 0 is the no-effect control and ±100 the full control effect; nearly all actives have a fitted effect of over 45% in size; luciferase light after 4 h
# NS1 function inh = influenza NS1 inhibition | AID 2326 | S. cerevisiae slowed by influenza A NS1, growth recovery by OD600 | 0.4% of 270,000 active | Potency, µM (series often up to 46.1 µM), for the others: at the top dose activity, positive = more growth; active means well fitted rising curve with a large enough effect; inconclusive means small, poorly fitted or top-dose-only effect; inactive means no such curve, though single readings can be large or run the other way; further: nearly all actives have a fitted effect of over 50% in size
#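 OD600 was taken as the measure of yeast growth restored by compound in an NS1-expressing S. cerevisiae strain. Cells had been washed out of glucose medium and diluted 1:100 into galactose -URA medium, pH 6.0.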
# SARS PLpro yeast = SARS-CoV PLP inhibition in yeast; Potency, µM (top dose mostly 32.9 µM), inactives show at the highest dose activity, positive = growth rescue; AID 485353; S. cerevisiae expressing SARS-CoV PLpro, growth rescue; control for the full effect not named in the record; 0.19% of 330,000 active; active means well fitted rising curve with a large enough effect; inconclusive means small, poorly fitted or top-dose-only effect; inactive means no such curve, though single readings can be large or run the other way; further: 0% is about no effect; nearly all actives have a fitted effect of over 55% in size; growth read by luminescence after 48 h
# RE007 growth inh = less growth of the S. pombe RE007 Vpr strain. Potency, µM (series often up to 92.2 µM), for the others: at the highest dose activity change, negative = less growth. S. pombe RE007 Vpr strain, BacTiter-Glo ATP luminescence, 24 h; control for the full effect not named in the record. 0.21% of 360,000 active; active = well fitted falling curve with a large enough effect; inconclusive = small, poorly fitted or top-dose-only effect; inactive = no such curve, though single readings can be large or run the other way;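 further: on the % scale 0 is the no-effect control and ±100 the full control effect; nearly all actives have a fitted effect of over 50% in size; the assay follows cell death caused by Vpr and the record does not say whether a fall means rescue or toxicity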
#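 Fission yeast strain RE007, carrying one chromosomally integrated HIV-1 vpr copy, was seeded at OD 0.01 in PMG+AL medium with 23 nL pinned compound. After 24 h at 30 °C and 99% humidity, viability was read by BacTiter-Glo luminescence.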
# Cruzain inh Det = blocks cruzain activity in presence of Triton detergent; purified cruzain, Z-FR-AMC fluorescence, 0.01% Triton; 0.43% of 200,000 active; Potency, µM, for the others: max response, negative = inhibition, most hits filed as inhibitors; P25779;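 further: plate controls were neutral wells for no effect and buffer without enzyme for full effect; nearly all actives have a fitted effect of over 40% in size; top concentration of the series not given in the record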
# Target sequence (P25779 123-467 limits assumed): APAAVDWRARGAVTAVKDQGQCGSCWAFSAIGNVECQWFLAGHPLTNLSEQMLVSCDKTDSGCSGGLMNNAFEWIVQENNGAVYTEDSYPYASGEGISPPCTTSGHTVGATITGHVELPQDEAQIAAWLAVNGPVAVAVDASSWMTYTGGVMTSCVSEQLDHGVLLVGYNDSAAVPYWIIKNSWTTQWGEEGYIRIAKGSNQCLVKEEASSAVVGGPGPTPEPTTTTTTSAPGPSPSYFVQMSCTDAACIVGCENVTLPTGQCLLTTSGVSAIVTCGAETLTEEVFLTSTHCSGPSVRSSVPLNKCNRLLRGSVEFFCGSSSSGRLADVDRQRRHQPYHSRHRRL
#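 15 min RT preincubation of 1.5 nM cruzain with compound, then 2 uM Z-FR-AMC added; kinetic AMC fluorescence, 60 s delta. Triton X-100 0.01%, pH 5.5.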
# Cruzain inh noDet = blocks cruzain activity in detergent-free assay. P25779. purified cruzain, Z-FR-AMC fluorescence, no detergent. Potency, µM, inactives show max response, negative = inhibition, hits mostly inhibitors. 2.3% of 200,000 active;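 further: plate controls were enzyme without inhibitor for no effect and buffer without enzyme for full effect; nearly all actives have a fitted effect of over 40% in size; top concentration of the series not given in the record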
#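 Detergent-free condition (0.00005% Triton X-100) in acetate buffer pH 5.5 with DTT. 1.5 nM enzyme and compound were pre-mixed 15 min, then 2 uM Z-FR-AMC substrate added; reaction progress from fluorescence change between first and third reads (60 s).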
# * hit, by the source's call; ? = inconclusive; nt = no result given; & = joins results of further samples; [ ] = dose if it differs, or a comment. Unless noted, the call rests on the fitted dose curve; in most records, active means well fitted curve in the direction sought with a large enough effect; inconclusive means small, poorly fitted or top-dose-only effect, or another doubt; inactive means no such curve, though single readings can be large; an effect the other way counts as inactive or inconclusive. Potency means the concentration at half of the fitted maximal effect.
# Every second line gives: LASV entry inh	MARV entry inh	StopGo reporter	NS1 function inh	SARS PLpro yeast	RE007 growth inh	Cruzain inh Det	Cruzain inh noDet
O=C(O)C(Cc1c[nH]c2ccccc12)NS(=O)(=O)c1ccc2ccccc2c1 (stereo unspecified)
  -2.1%	25.4%	-19.4%	12.9%	16.3%	11.9%	-6.5%	-5.0%
Cc1ccc(C(CCN)c2ccco2)cc1 (stereo unspecified)
  7.1%	?	1.1%	3.8%	-1.7%	-13.3%	3.2%	-8.8%
C/C(=N\NC(=O)Cc1ccc(Br)cc1)c1cccnc1
  3.8%[46.1 µM]	7.5%[46.1 µM]	-0.7%	1.5%	3.0%	13.2%	nt	nt
Cc1cc(S(=O)(=O)N2CCOCC2)ccc1OCC(=O)N1CCOCC1
  -0.8%	1.6%[46.1 µM]	-0.6%	2.8%	3.4%	-1.4%	nt	nt
Cc1nccc2[nH]c(=O)c(C(=O)NCCCN(C)C3CCCCC3)cc12
  nt	-1.3%	nt	1.9%	-5.2%	nt	3.5%	0.7%
CC(C)CCn1c(SCC#N)nc2c(sc3ccccc32)c1=O
  6.6%	?	-17.7%	2.3%	5.2%	-2.4%	-5.7%	-10.5%
CCn1c(SCC(=O)c2ccc(O)c(O)c2)nnc1-c1ccccc1OC
  7.3%	1.8%&1.8%	-8.5%	10.7%	2.2%	2.5%	-6.4%	0.3%
CCS(=O)(=O)N1CCC(C(=O)N2CCN(c3ccccc3)CC2)CC1
  3.6%	-16.1%	-7.2%	0.4%	4.9%	-5.5%	5.4%	5.2%
Nc1c(C(=O)Nc2ccc(Br)cc2)sc2nc(-c3ccncc3)ccc12
  -8.7%[46.1 µM]	?	-7.6%	nt	nt	nt	-6.0%	3.3%
COc1cccc2cc(C(=O)c3ccccc3)oc12
  ?	-1.2%[46.1 µM]	20.6%	-36.2%	-3.3%	-4.3%	nt	nt
O=C(CCCc1c[nH]c2ccccc12)N[C@@H](Cc1c[nH]c2ccccc12)C(=O)O
  5.9%[46.1 µM]	7.6%[46.1 µM]	-13.0%	5.3%	-5.4%	8.9%	nt	nt
COc1ccccc1NC(=O)CSC1=Nc2ccccc2C2=NC(CC(=O)NCc3ccccc3)C(=O)N12 (stereo unspecified)
  -9.1%[46.1 µM]	nt	-13.3%	nt	nt	nt	-3.3%	-13.9%
Cc1ccc(N(CC(=O)NC(C)(C)C)C(=O)CS(=O)CC(=O)Nc2ccc3c(c2)OCO3)cc1 (stereo unspecified)
  nt	nt	11.6%	-1.2%	0.7%	-2.7%	nt	nt
Cc1ccc(S(=O)(=O)Nc2c(C)n(C)n(-c3ccccc3)c2=O)cc1C(=O)OC(C)C(=O)N(C)c1ccccc1 (stereo unspecified)
  nt	-13.0%[46.1 µM]	33.6%[activator]	nt	4.4%	-6.5%	nt	nt
O=C(CCN1CCOCC1)Nc1ccc(Br)cc1C(=O)c1ccccc1
  nt	nt	-11.7%	-1.0%	-0.6%	-1.6%	nt	nt
Cc1ccsc1/C=N/n1cnc2sc(C)c(C)c2c1=O
  0.5%	17.7%	6.9%	-110.9%	1.2%	-5.5%	0.3%	0.9%
CC1CN(c2nc3c(c(=O)n(C)c(=O)n3C)n2Cc2c(Cl)cccc2Cl)CC(C)O1 (stereo unspecified)
  8.3%	5.8%[46.1 µM]	-10.2%	-7.6%	nt	-10.2%	nt	nt
COc1ccc(C(=O)N2CC(=O)Nc3ccccc32)cc1S(=O)(=O)N1CCOCC1
  nt	nt	1.1%	1.1%	-0.2%	-7.1%	nt	nt
OCC(O)C(O)C(O)c1cnn(-c2ccccc2)n1 (stereo unspecified)
  1.7%[46.1 µM]	19.2%[46.1 µM]	5.2%	nt	nt	-1.8%	nt	nt
CCOc1cc(-c2noc(CCCC(=O)NC3CCCCC3)n2)ccc1OC
  -14.4%[46.1 µM]	13.9%[46.1 µM]	-9.8%	9.4%	3.2%	-14.6%	nt	nt
O=C(Nc1nccs1)C1CCCN1S(=O)(=O)c1ccc(Cl)cc1 (stereo unspecified)
  5.6%	11.2%	nt	2.7%	3.8%	5.2%	2.7%	1.5%
CC(C)CCN1CCN(Cc2nc(-c3ccccc3)cs2)CC1CCO (stereo unspecified)
  -11.3%	-31.3%[46.1 µM]	-15.8%	-1.0%	-0.8%	-15.4%	nt	nt
N#CC(C#N)=Cc1ccc(N2CCCC2)cc1
  ?	-28.2%	-10.4%	nt	-5.4%	-7.1%	nt	nt
O=S(=O)(c1cccc(COc2ccc(Cl)cc2Cl)c1)N1CCOCC1
  -61.5%	?	-27.5%	-18.4%	-6.9%	0.1%	nt	nt
COc1ccc(-n2nc3c(c2NC(=O)c2ccco2)CS(=O)(=O)C3)cc1
  1.7%[46.1 µM]	2.4%[46.1 µM]	-5.2%	-4.4%	13.0%	-3.3%	nt	nt
O=C1CCC(C(=O)OCC(=O)Nc2cc(Cl)ccc2F)=NN1
  1.1%	-2.9%	-17.9%	nt	-11.7%	2.7%	nt	nt
Cc1cnc(C(=O)OCC(=O)NCCCc2ccccc2)cn1
  1.8%	14.3%[46.1 µM]	-9.2%	nt	-5.4%	2.1%	nt	nt
COc1ccc(CCNC(=O)C(=O)NCC2OCCN2S(=O)(=O)c2cc(F)ccc2F)cc1OC (stereo unspecified)
  nt	nt	-22.5%	5.8%	-3.4%	3.3%	nt	nt
O=S(=O)(NCCc1ccccn1)c1ccc(-c2ccccn2)s1
  nt	nt	25.0%	0.4%	-0.3%	-2.8%	nt	nt
CCC(=O)c1cc2c(cc1NC(=O)c1ccccc1)OCCO2
  -10.5%	3.4%	nt	-49.1%	6.1%	-14.5%	-0.6%	-9.2%

# Some values from the results shown:
# For StopGo reporter, `COc1ccc(-n2nc3c(c2NC(=O)c2ccco2)CS(=O)(=O)C3)cc1` has the entry -5.2%
# For MARV entry inh, `CC(C)CCN1CCN(Cc2nc(-c3ccccc3)cs2)CC1CCO` (stereo unspecified) has the entry -31.3%[46.1 µM]
# For LASV entry inh, `O=C(CCCc1c[nH]c2ccccc12)N[C@@H](Cc1c[nH]c2ccccc12)C(=O)O` has the entry 5.9%[46.1 µM]

# More compounds follow:
# Every second line gives: LASV entry inh	MARV entry inh	StopGo reporter	NS1 function inh	SARS PLpro yeast	RE007 growth inh	Cruzain inh Det	Cruzain inh noDet
COc1ccc(C(=O)Nc2nc3nccc(-c4ccccc4)n3n2)cc1
  ?	-16.1%	-2.9%	-0.4%	2.3%	4.3%	0.0%	-22.4%
CCOC(=O)N1CCC(=C(C#N)C(=O)Nc2cc(OC)ccc2OC)CC1
  ?	12.9%	10.8%	3.7%	5.8%	-10.5%	3.8%	7.4%
Cc1ccc2nc(NC(=O)COC(=O)c3ccco3)sc2c1
  ?	-11.8%	41.6%[activator]	3.8%	nt	-8.7%[3.69 µM]	-8.0%	-11.2%
CCOC(=O)C1CCN(C(=O)CCS(=O)(=O)c2ccc3c(c2)n(C)c(=O)c(=O)n3C)CC1
  nt	nt	-20.5%	5.5%	1.9%	-8.6%	nt	nt
CCCC(=O)Nc1ccc2c(c1)nc(CCN1CCCCC1)n2C
  ?	1.6%[46.1 µM]	-2.2%	4.7%	1.2%	-3.8%	nt	nt
COc1ccc(-n2c(C)cc(C(=O)CN3CCCCC3)c2C)cc1
  0.1%	-8.4%	11.2%	nt	-0.3%	-4.1%	nt	nt
Cn1cc(S(=O)(=O)N2CCOCC2)cc1C(=O)Nc1cccc(Cl)c1
  nt	nt	-9.5%	4.0%	4.2%	9.1%	nt	nt
CC(=O)N1c2ccc(S(=O)(=O)N3CCC(C(=O)NCc4ccccc4)CC3)cc2CC1C (stereo unspecified)
  nt	nt	-12.1%	-6.9%	-17.6%	-13.7%	nt	nt
CN1CCN(S(=O)(=O)c2cnccc2N2CCN(c3cccc(Cl)c3)CC2)CC1
  ?	-0.6%	?	-6.2%	2.5%	7.3%	-3.0%	9.8%
CC(=O)c1cccc(NC(=O)CSc2ncc(C(=O)Nc3ccccc3)c(=O)n2C)c1
  10.5%	18.0%	?	nt	3.7%	17.9%	nt	nt
Cc1cccc(N(CC(=O)NCc2ccccc2)S(C)(=O)=O)c1C
  -3.0%[46.1 µM]	1.8%[46.1 µM]	-6.5%	nt	nt	nt	-0.3%	3.9%
COc1ccc(/C=C/C(=O)NCCn2c(C)cc3ccccc32)cc1OC
  -4.8%	-19.8%	-23.5%	?	-0.8%	4.6%	-5.8%	?
COc1ccc(/C=C/c2nc3ccccc3c(=O)n2-c2cccc(C(F)(F)F)c2)cc1
  11.2%[46.1 µM]	nt	-18.5%	nt	nt	nt	0.2%	-0.3%
C=CCOC(=O)C1CC=CCC1C(=O)Oc1ccc(F)cc1F (stereo unspecified)
  -19.1%[14.3 µM]	-7.5%	5.4%	-8.6%	-1.9%	1.4%	-5.1%	0.6%
CC(C)(CO)NC(=O)CC1C(=O)NCCN1Cc1ccc(-c2ccccc2)cc1 (stereo unspecified)
  -29.2%[46.1 µM]	-3.0%[46.1 µM]	-5.4%	-5.9%	0.4%	5.4%	nt	nt
CC1CCc2c(sc(NC(=O)Cn3nc(C(=O)O)c4ccccc4c3=O)c2C#N)C1 (stereo unspecified)
  nt	nt	15.1%	1.4%	-1.8%	13.8%	nt	nt
CCC1CCCCN1S(=O)(=O)c1ccc2c(c1)CCN2C(C)=O (stereo unspecified)
  7.5%[46.1 µM]	-18.9%[46.1 µM]	-11.6%	7.5%	8.2%	12.2%	nt	nt

# Rewritten bar-delimited: 2 of the compounds above.
smiles | LASV entry inh | MARV entry inh | StopGo reporter | NS1 function inh | SARS PLpro yeast | RE007 growth inh | Cruzain inh Det | Cruzain inh noDet
C=CCOC(=O)C1CC=CCC1C(=O)Oc1ccc(F)cc1F (stereo unspecified) | -19.1%[14.3 µM] | -7.5% | 5.4% | -8.6% | -1.9% | 1.4% | -5.1% | 0.6%
CC(C)(CO)NC(=O)CC1C(=O)NCCN1Cc1ccc(-c2ccccc2)cc1 (stereo unspecified) | -29.2%[46.1 µM] | -3.0%[46.1 µM] | -5.4% | -5.9% | 0.4% | 5.4% | nt | nt
